Screens from PubChem.
VACV mCherry inh: vaccinia inhibition (mCherry reporter) | Vaccinia virus mCherry reporter infection, fluorescence; about a quarter of the inactives have no number | Potency, µM (highest dose often 36.5 µM), inactives show at the highest dose activity change, negative = inhibition, actives largely listed as inhibitors | 310,000 tested, 0.63% active; active = well fitted inhibition curve with a large enough effect; inconclusive = small, poorly fitted or top-dose-only effect; inactive = no such curve, though single readings can be large or run the other way; tested in A549 cells; further: nearly all actives have a fitted effect of over 35% in size; inactives centre near -10
VACV Venus inh: vaccinia inhibition (Venus reporter); 330,000 tested, 0.46% active; Vaccinia virus Venus reporter expression, fluorescence; Potency, µM (top dose mostly 36.5 µM), for the others: top-dose activity change, negative = inhibition, most hits filed as inhibitors; active means well fitted inhibition curve with a large enough effect; inconclusive means small, poorly fitted or top-dose-only effect; inactive means no such curve, though single readings can be large or run the other way; tested in A549 cells; further: nearly all actives have a fitted effect of over 30% in size; inactives centre near -10
Starred values were filed as active, the others as inactive; i = inactive; ? = inconclusive; nt = not tested or not shown; & = joins results of further samples; [ ] = dose if it differs, or a comment. On the % scale 0 is the no-effect control and ±100 the full control effect; potency means the concentration at half of the fitted maximal effect.

SMILES	VACV mCherry inh	VACV Venus inh
CCC(C(=O)NCCN1CCOCC1)n1c2ccccc2c2nc(=O)cc(C)n21 (configuration not stated)	-2%	-3%
O=C(c1ccc(-c2ccccc2)cc1)C1CCCN(C(=O)Cn2cncn2)C1 (configuration not stated)	-7%	-16%
COc1ccc(S(=O)(=O)N2CCc3ccccc32)cc1C(=O)N(CC(C)C)C1CCS(=O)(=O)C1 (configuration not stated)	i	-13%
CC1=NN(C(N)=S)C(=O)C1N=Nc1c(C)n(C)n(-c2ccccc2)c1=O (configuration not stated)	i	-5%
Cn1nc(C(F)(F)F)c(C(=O)Nc2ccc(F)cc2)c1Cl	-3%	-2%
CCNC(=O)COC(=O)COc1ccc(Cl)cc1C	nt	2%
COc1cc(-c2noc(C)c2C#CC2(O)CCCCC2)cc(OC)c1OC	-9%&-22%	-16%&-19%
CC(=O)c1ccc(OCCn2cnc3ccccc32)cc1	-9%	-18%
COCCN1CC(O)=C(c2nc3ccccc3c(=O)[nH]2)C1=N	nt	-16%
CCC1(c2ccc(F)cc2)NC(=O)NC1=O (configuration not stated)	8%	8%
COc1ccc(C(=O)NC2CC2)cc1OC1CCN(Cc2cc(C)cc(C)c2)CC1	-24%	-19%
CN(C)CCNc1ncnc2c1ncn2[C@H]1CN(Cc2cccs2)C[C@@H](CO)O1	21%	7%
COc1cc(CNCCNCC(C)O)ccc1OCc1ccc(Cl)nc1 (configuration not stated)	i	-20%
c1ccc(Cc2c(-c3ccco3)nc3c4ccccc4ccn23)cc1	32%[activator]	-1%
CCn1nc(C(=O)Nc2nc3ccc(C)cc3s2)c2ccccc2c1=O	-9%	-1%
CN(CCO)c1nc(N)c2c(N)nc3c(c2c1C#N)CC(=O)N3Cc1cccs1	?	?
COc1ccccc1NC(=S)NC(=O)c1ccc(Cn2cc(Br)cn2)cc1	?	-17%
Cc1ccc(NC(=O)CSc2nnc(-c3cc4occc4n3C)n2-c2ccccc2C)c(Cl)c1	-15%	-15%
COC(=O)CN1C(=O)[C@H]2[C@@H](c3ccc(C)o3)N3C(=O)CN(Cc4ccccn4)C(=O)[C@@]3(C)[C@H]2C1=O	i	-6%
Cc1nc(N2CCCC2)ncc1C(=O)Nc1ccc(F)cc1F	1%	-16%
CCOc1ccc(N(CC)C(=O)C2CCN(S(=O)(=O)c3cccc4nonc34)CC2)cc1	-4%	8%
Cc1ccc(NS(=O)(=O)c2cc(C(=O)NCc3ccncc3)ccc2C)cc1	i	-6%
CC(=O)Nc1ccc(S(=O)(=O)Nc2ncccn2)cc1	i	-11%
COc1ccc(C2c3cc4c(cc3OC(N3CCOCC3)C2C)OCO4)c(OC)c1 (configuration not stated)	?	?
COCCn1nnnc1C(c1cccs1)N1CCN2CCCC2C1 (configuration not stated)	-1%	-1%
Cc1[nH]c(=O)[nH]c(=O)c1NS(=O)(=O)c1ccc2c(c1)CCCC2	i	-15%
CCc1ccccc1NC(=O)CSC1=C(C#N)C(c2ccc(O)c(OC)c2)C2=C(CCCC2=O)N1 (configuration not stated)	-25%	-12%
Cc1cc(OC(C)C(=O)N(Cc2ccco2)C2CCS(=O)(=O)C2)ccc1Cl (configuration not stated)	4%	-5%
Cc1ccc2c(CC(=O)NNC(=O)c3ccccc3)coc2c1	2%	10%
C=CCCC(=O)N(C)CCO	i	-8%
O=C(CCN1C(=O)c2ccc(Br)cc2C1=O)NC1CCCCC1	-16%	-6%
Cc1cc(C)c2c(CN3CCN(Cc4ccc5c(c4)OCO5)CC3)cc(=O)oc2c1C	nt	-8%
CSc1nc(C)cc(OCNC(=O)c2cccs2)n1	-17%	-12%
Cn1nc(C(=O)NCc2cccc(Cl)c2)c2c1-c1ccccc1S(=O)(=O)C2	3%[7.34 µM]	13%[7.34 µM]
Cc1cccc(NC(=O)C2CC(=O)N(c3ccccc3)C2)c1C (configuration not stated)	nt	-26%
CSc1nc(-c2ccc(Cl)cc2)c(C#N)c(=O)[nH]1	i	-4%
COc1ccc(Cn2ccnc2SCC(=O)Nc2ccccc2)cc1	-12%	-10%
CCc1ccc(NC(=O)c2ccc(F)c(S(=O)(=O)NCCc3ccc(OC)c(OC)c3)c2)cc1	?	?
COc1cccc(C(c2sc3nc(-c4ccco4)nn3c2O)N2CCOCC2)c1 (configuration not stated)	4%	4%
O=C(NC(=S)N1CCCCC1CO)c1cc(Br)ccc1Cl (configuration not stated)	-22%	0%
CCc1[nH]c(=S)c(C#N)c(-c2ccccc2)c1C(=O)OC	0%	-16%
O=C1CC(N(Cc2ccc3c(c2)OCO3)C(=O)Nc2ccc(F)cc2)C(=O)N1c1ccccc1 (configuration not stated)	-7%	-10%
O=C(CSc1nnc(-c2cccnc2)n1-c1ccc(F)cc1)NCc1ccc2c(c1)OCO2	-6%	-9%
Cc1cc(C)nc(SCC(=O)Oc2ccc3oc(=O)cc(C)c3c2)n1	-16%	-17%
Cc1cccc(OCC(=O)Nc2nonc2-c2ccc(Br)cc2)c1C	-12%	-2%
O=C(O)c1ccc(CN2CCCCC2)o1	-7%	-7%
OC1(c2ccccc2F)CCN(Cc2nnnn2CCc2ccccc2)CC1	-8%	-6%
Cc1ccc(Cc2c(C3CCCCC3)nc3ccc(C)cn23)cc1	-1%	-17%
CCC(C)[C@H](NC(=O)NC1CCCc2ccccc21)C(=O)OC (some centres not stated)	-12%	-12%
C/C(=N\NC(=O)c1cc(C2CC2)nc2ccccc12)c1ccc(O)cc1O	?	-24%
(next part)
SMILES	VACV mCherry inh	VACV Venus inh
COc1cc(C(=O)NCC(=O)Nc2ccc(F)c(F)c2)ccc1OCC(=O)N1CCOCC1	-17%	-17%
Cc1ccc(NC(=O)Cn2nnc3sc4c(c3c2=O)CCC(C)C4)cc1 (configuration not stated)	i	-12%
COC(=O)Nc1ccc(Cc2ccncc2)cc1	-6%	0%
COc1cc(SC)ccc1C(=O)Nc1nc(C)cs1	10%	-21%
COCC1CCCN(Cc2ccc3c(c2)CN(C(=O)c2ccnn2C)CCO3)C1 (configuration not stated)	-6%	6%
Cc1ccc(Cl)cc1-n1ncc2c(Nc3ccc4c(c3)OCCO4)ncnc21	-18%	-19%
CCc1ccccc1N1C(=O)N(Cc2cc(=O)n3ccccc3n2)c2ccccc2S1(=O)=O	-9%	-8%
O=C(O)c1ccc(OCC2CCCO2)cc1 (configuration not stated)	i	-8%
Cc1ccccc1NC(=O)Cn1c(=O)n(CCCC(=O)NCc2ccc3c(c2)OCO3)c(=O)c2ccccc21	-5%	-3%
Cc1ccc(-c2cc(C(=O)N/N=C/c3c(C)nn(C)c3C)c3ccccc3n2)c(C)c1	-3%	-18%

3 compounds out of the list, ordered by count of non-hydrogen atoms, rising:
SMILES	VACV mCherry inh	VACV Venus inh
COC(=O)Nc1ccc(Cc2ccncc2)cc1	-6%	0%
COc1cc(SC)ccc1C(=O)Nc1nc(C)cs1	10%	-21%
Cc1ccc(-c2cc(C(=O)N/N=C/c3c(C)nn(C)c3C)c3ccccc3n2)c(C)c1	-3%	-18%

More results.
SMILES	VACV mCherry inh	VACV Venus inh
CCc1nc2nc(C)c(NS(=O)(=O)c3ccc(C)cc3)c(=O)n2[nH]1	-7%	-4%
CSCC[C@H](NC(=O)Cc1c(C)c2c(cc(C)c3c(C)coc32)oc1=O)C(=O)O	i	-8%
COc1cccc(OC)c1C(=O)N1CCN(c2c(Cc3ccccc3)c(C)nc3ncnn23)CC1	-9%	-8%
CC(=NCCc1ccccc1)C1=C(O)CSC1=O	3%	-3%
CS(=O)(=O)N(CC(=O)NCc1ccccc1Cl)c1cccc([N+](=O)[O-])c1	-8%	-10%
Cc1cnc(C(=O)OCC(=O)N2c3ccccc3NC(=O)C2(C)C)cn1	-13%	-13%
COc1ccc(CC(=O)N2CCCC2)c(OC)c1	11%	-6%
CCN(CC)c1ccc(NC(=O)CCNC(=O)c2ccco2)cc1	-16%	-9%
COc1cc(NC(=O)Nc2c[nH]c(=O)[nH]c2=O)cc(OC)c1OC	-3%	12%
Cc1ccc(S(=O)(=O)N2C[C@H]3C(=O)C[C@@H](c4ccc(Cl)cc4)N(S(=O)(=O)c4ccc(C)cc4)[C@H]3C[C@H]2c2ccccc2)cc1	i	-10%
COc1cccc(CNc2nc3cc(C(C)=C(C)C)sc3c(=O)n2C)c1	-22%	-20%
O=[N+]([O-])c1ccc2c(c1)ncn2-c1ccccc1	-13%	-1%
O=C(NC1CC1)C1CCN(C(=O)c2ccccc2Cl)CC1	-17%	-1%
CN1c2cc(Cl)ccc2-c2nc(SCC(=O)Nc3ccc(F)cc3F)ncc2S1(=O)=O	?	-30%
Cc1ccccc1OCCC(=O)OCC(=O)Nc1ccc2[nH]c(=O)[nH]c2c1	-2%	-9%
C=CCOC(=O)c1ccccc1N	-1%	-20%
Cc1nc(-c2ccc(S(=O)(=O)Nc3cccc(S(N)(=O)=O)c3)s2)cs1	-16%	-15%
COc1ccccc1Nc1nnc(SCC(=O)Nc2cc(C)on2)s1	-15%[1.46 µM]	-19%
O=S(=O)(c1ccc(F)cc1)N1CCN(c2nc(-c3cccs3)nc3ccccc23)CC1	-13%	-18%&-19%
NS(=O)(=O)c1ccc(N=Nc2c(O)c(C(=O)O)cc3ccccc23)cc1	-8%	?

Random excerpt: 3 entries already listed, in no set order.
SMILES	VACV mCherry inh	VACV Venus inh
COc1ccccc1Nc1nnc(SCC(=O)Nc2cc(C)on2)s1	-15%[1.46 µM]	-19%
O=C(NC1CC1)C1CCN(C(=O)c2ccccc2Cl)CC1	-17%	-1%
O=[N+]([O-])c1ccc2c(c1)ncn2-c1ccccc1	-13%	-1%

Back to the main list with the 3 entries that preceded the break.
SMILES	VACV mCherry inh	VACV Venus inh
COc1ccccc1Nc1nnc(SCC(=O)Nc2cc(C)on2)s1	-15%[1.46 µM]	-19%
O=S(=O)(c1ccc(F)cc1)N1CCN(c2nc(-c3cccs3)nc3ccccc23)CC1	-13%	-18%&-19%
NS(=O)(=O)c1ccc(N=Nc2c(O)c(C(=O)O)cc3ccccc23)cc1	-8%	?
O=C(CCNC(=O)c1ccccc1)NNC(=O)COc1ccccc1Cl	-7%	-13%
Cc1ccccc1NC(=O)CN1CCN(C)CC1	-3%	-6%
N#Cc1cnc(Sc2ccccc2)nc1	-7%	-11%
COC(=O)[C@@H]1C[C@@]2(O)[C@@H](O)[C@@H](O)[C@@H](O)C[C@H]2N1Cc1ccc(-c2ccccc2)cc1	i	-18%
O=C(c1cc2cc(Br)ccc2oc1=O)N1CCN(c2ccccn2)CC1	-9%	-3%
CCOC(=O)/C=C1\CC(C(=O)OCC)Oc2c(OC)cccc21 (configuration not stated)	i	0%&-8%
CCOc1cc(C2c3c(oc4ccccc4c3=O)C(=O)N2Cc2ccc(OC)cc2)ccc1O (configuration not stated)	?	-29%
O=Cc1ccccc1OCCOc1ccccc1C=O	-17%	-11%
C=CCN1C=CC(=O)[C@@H](O)[C@H]1c1ccccc1Br	i	-3%
CCN(CC)c1nc(-c2cccc(OC)c2O)nc2ccccc12	-22%	-14%
CCc1noc(C)c1C(=O)Nc1ccc(F)c(F)c1F	-11%	-6%
CCOC(=O)N1CCC(NC(=O)c2ccc3nc(N4CCOCC4)sc3c2)CC1	i	-9%
COC(=O)c1nnn(CC(=O)NC(=O)Nc2ccccc2)c1C(=O)OC	-1%	-4%
O=C(CCN1C(=O)c2cccc3cccc(c23)C1=O)N1CCOCC1	8%	6%
CC1=C(c2ccc(F)cc2)S(=O)(=O)N=C1N1CCC(C(=O)NCCc2ccccc2C)CC1	-11%	-4%
O=C(CN1CCN(c2ccc([N+](=O)[O-])cc2)CC1)Nc1ccccn1	-13%	-5%
CCC(=O)c1ccc(OC)c(OC)c1OCc1ccccc1	-6%	-7%
CCOC(=O)NC(=O)/C(C#N)=C\c1ccccc1	i	7%
O=C(O)CSc1nnc(-c2ccc3c(c2)OCO3)n1-c1ccccc1	i	-5%
CC(=O)c1ccc(-n2nnnc2SCC(=O)N2CCN(C(=O)c3ccco3)CC2)cc1	nt	-12%
C[C@H](CO)N1C[C@H](C)[C@H](CN(C)Cc2ccncc2)Oc2ncc(C#CC3CC3)cc2C1=O	-28%	-10%
O=C(CSc1ncnc2c1nnn2Cc1ccccc1F)N1CCN(c2ccccc2)CC1	nt	2%
CCOCCc1nnc(NC(=O)CS(=O)(=O)Cc2ccccc2)s1	i	1%
O=C(CCc1ccccc1)Nc1nnc(-c2ccccn2)o1	i	-9%
CCc1ccc(S(=O)(=O)c2cn(CC(=O)Nc3cccc(C)c3)c3ccc(Cl)cc3c2=O)cc1	-10%	1%
COc1cccc(CNc2nc3cc(-c4cccc(Cl)c4)sc3c(=O)n2C)c1	-14%	-26%
CC(=O)Nc1cc(-c2ccc(S(C)(=O)=O)cc2)cn2c(-c3ccc(F)c(Cl)c3)cnc12	10%	-15%
CCN1CCN(Cc2ccc(NC(=O)c3ccc(C)c(NC(=O)c4cccc5[nH]ccc45)c3)cc2C(F)(F)F)CC1	-17%	?

Molecules listed so far that have a nitro group on carbon, in the order listed:
SMILES	VACV mCherry inh	VACV Venus inh
CS(=O)(=O)N(CC(=O)NCc1ccccc1Cl)c1cccc([N+](=O)[O-])c1	-8%	-10%
O=[N+]([O-])c1ccc2c(c1)ncn2-c1ccccc1	-13%	-1%
O=C(CN1CCN(c2ccc([N+](=O)[O-])cc2)CC1)Nc1ccccn1	-13%	-5%
